Bioassay records: PubChem BioAssay, several laboratories
PrP UTR inh: inhibition of PrP 5' UTR reporter expression | hit rate 0.35% among 340,000 | inhibition, % (concentration not given with the values) | cell-based PrP 5' UTR mRNA reporter, plate reader | AID 488862, 2010;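 active = every replicate at 50% or more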;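 note: 0 = median of the neutral control wells; tested in H4 reporter cells; numbers are from one replicate; inactives centre near -14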
RN4220 kill: growth inhibition of S. aureus RN4220, primary screen, OD600; inhibition, % (test concentration not listed); hit rate 0.33% among 330,000; AID 1259311, 2017; 16 h;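 active = z-score of -3 or lower and OD600 up to 0.18 on both plates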;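 note: plate controls were untreated cells for no effect and reference antibiotic for full effect; stock transfer was 100 nL into about 80 µL; one replicate is shown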
Sa ugtP lethal: growth inhibition of ugtP-null S. aureus, primary screen, RN4220 ugtP deletion, OD600; 16 h; some inactives read as strong as hits; growth inhibition, % (no concentration beside the values); hit rate 0.54% among 330,000; AID 1259309, 2017;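 active = z-score under -3 and OD600 up to 0.15 on both plates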;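 note: plate controls were untreated wells for no effect and antibiotic for full effect; wells of about 80 µL received 100 nL stock; the first replicate is given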
Autofluor counter: flagged as autofluorescent in microsphere protease counterscreen. compound autofluorescence counterscreen, microsphere flow cytometry; active compounds read high. fluorescence intensity (concentration not given with the values). hit rate 3.1% among 360,000;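 active = at least 3 SD above the mean of all compounds, about 16000 in these data; inconclusive = too few beads counted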;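 note: 100 nL of 1 mM stock went into each well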
BJeLR viability: MLPCN primary cell-based screen for lethality selective to Ras in HRASV12 cells; BJeLR (HRASV12) viability, CellTiter-Glo ATP luminescence, 48 h; reference of the scale not given here; inhibition, % (concentration not given with the values); hit rate 0.17% among 300,000; AID 1554, 2009;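 active = replicate mean above 50%; inconclusive = above 50% but judged a plate artefact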;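 note: 50 nL library stock added to about 25 µL; numbers are from one replicate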
Mtb hypoxia inh: PubChem AID 1159583; M. tuberculosis hypoxia-regulated fluorescent reporter, fluorescence; fluorescence inhibition, % (no concentration beside the values); hit rate 0.1% among 300,000;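 active = 35 to 45% if threefold the growth effect, above 45% if 1.5-fold the growth effect; inactive = the rest, general growth blockers included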;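 note: wells of about 50 µL received 100 nL stock; 0% = vehicle wells and 100% = reference inhibitor wells; whole bacteria with a GFP reporter of the hypoxia response; strong numbers were not always called active; many hits fall short of the cut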
Mtb hypoxia inh growth: further read-out of Mtb hypoxia inh, marked with its call; growth inhibition, %; measured here: M. tuberculosis growth (absorbance);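 0% = vehicle and 100% = reference antibiotic; read after six days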
* marks the source's active call; other numbers are inactive results; ? = inconclusive; / = not tested or not shown. Hits appear at their usual frequency (roughly 3.9% active in at least one column).

SMILES	PrP UTR inh	RN4220 kill	Sa ugtP lethal	Autofluor counter	BJeLR viability	Mtb hypoxia inh	Mtb hypoxia inh growth
COc1ccc(CN2CCNC(=O)C2CC(=O)NCc2cc(C)n(C)n2)c(F)c1 (stereo unspecified)	-7	3.4	-1	5777	-4	2	3
COc1ccc(-c2nnc(SCc3c(C)noc3C)o2)cc1	-31	7.3	3	3122	5	10	4
C#CC1(NC(=O)NC(C)C)CCCCC1	-23	4.0	4	2448	-5	-1	-6
O=C(OCn1nnc2ccccc2c1=O)c1ccc(Br)o1	-3	3.8	3	15542	-15	-8	1
Cc1cccc2cc(CN(Cc3ccco3)C(=O)NC3CCCCC3)c(=O)[nH]c12	-7	-0.8	4	15977	4	8	-2
CCc1ccc(NC(=S)Nc2cccc(OC)c2)cc1	-28	-13	4	2373	0	24	20
O=C(CN(C1CCCCC1)S(=O)(=O)c1ccc(Cl)cc1)N1CCOCC1	-16	0.9	3	4191	5	9	5
Cc1ccc(-c2nc3cc(NC(=O)C(C)C)ccc3o2)cc1C	28	-0.4	-22	24088*	6	-18	9
Nc1ccc(-c2ccc(N)c([N+](=O)[O-])c2)cc1[N+](=O)[O-]	13	6.6	-11	4890	0	11	-2
Cc1ccn2c(Nc3ccc4c(c3)OCO4)c(-c3ccc(O)cc3)nc2c1	-1	4.3	5	5339	2	1	-4
CCOC(=O)C1CCCN(S(=O)(=O)c2cc(Br)cc3c2N(C(=O)CC)CC3)C1 (stereo unspecified)	2	6.8	-2	4367	-16	-6	-9
COCCCNC(=O)CCSc1ccc(C)cc1	-14	5.2	7	2517	6	-2	3
CCN(CC)c1ccc(C(=O)NN=Cc2ccccc2OC(F)F)cc1	/	-1.9	0	/	/	-1	-6
O=C(Nc1ccc2nccnc2c1)c1cnccn1	-36	-0.7	3	2991	6	/	/
Cc1ccc(C(NC(=O)C2CCCCC2)c2c(O)ccc3ccccc23)cc1 (stereo unspecified)	-6	-7.2	-20	2052	-3	4	2
S=c1[nH]nc(COc2ccccc2)n1/N=C/c1cccnc1	-25	/	/	2124	10	/	/
Cc1cc(O)cc(O)c1-c1onc(C(F)(F)F)c1-c1cscn1	-30	-15	-1	2905	-3	6	10
COc1cccc(NC(=S)N(CCCN2CCOCC2)C(C)c2cc3cccc(OC)c3o2)c1 (stereo unspecified)	-21	0.7	1	3366	0	5	14
O=C(c1ccc2c(c1)N(Cc1ccccc1)CCS2)N1CCC2(CC1)OCCO2	3	7.4	-1	4541	7	13	9
O=C(c1cc(COc2c(F)cccc2F)on1)N1C[C@H]2CC[C@H]1C2	-76	4.4	6	5534	7	5	16
COc1ccc(C=N/N=C2/NC(=O)C(c3ccccc3)(c3ccccc3)S2)cc1	/	8.5	4	/	/	9	5
COC(=O)c1cccc(NC(=O)CN2CCN(c3ccc(OC)cc3)CC2)c1	-7	4.9	11	4291	-8	10	5
COC(=O)c1ccc(C)c(NC(=O)CSc2nnc3ccccn23)c1	-41	1.2	3	4111	/	7	-1
CN(c1ccccc1)S(=O)(=O)c1cc(C(=O)c2nccn2C)ccc1Cl	-11	2.0	4	9755	0	25	11
COc1cccc(OC)c1C(=O)Nc1ccc(N2CCCC2)cc1	-9	3.0	4	/	0	9	4
COc1ccc(CCNC(=O)c2ccc3c(c2)NC(=O)CS3)cc1OC	-12	-1.8	5	5125	3	5	1
COc1ccc2c(c1)OC1(C)CC2C(C(=O)c2ccccc2OC)C(=O)N1 (stereo unspecified)	-12	3.3	2	5212	-5	7	6
COc1ccc(NC(=O)CSc2nc3ncccc3[nH]2)cc1OC	3	1.4	-4	9792	-3	7	13
CCN(CC)C(=O)[C@H]1CC(CC(=O)NC(C)(C)C)C(=O)N2CCc3c([nH]c4ccccc34)[C@]12C (stereo partly specified)	-6	0.2	2	3975	/	-3	7
CSc1oc(-c2ccco2)nc1S(=O)(=O)c1ccc(F)cc1	-15	-10	4	6639	-2	9	7
COC1C=CO[C@@]2(C)Oc3c(C)c(O)c4c(O)c(c(C=NN5CCN(C6CCCC6)CC5)c(O)c4c3C2=O)NC(=O)C(C)=CC=CC(C)C(O)C(C)C(O)C(C)C(OC(C)=O)C1C (stereo partly specified)	/	99*	98*	/	/	/	/
COc1ccc(S(=O)Cc2ccc(C(=O)NCc3cccc(OC)c3)o2)cc1 (stereo unspecified)	-18	1.8	6	5338	2	5	7
Cc1nc2[nH]c(=S)n(C)c(=O)c2nc1C	-10	0.4	6	2570	-18	-1	5
S=C(NCc1ccccc1)NCc1ccccn1	-14	3.4	7	6039	-7	-8	-8
Cc1cc(-n2c(SCc3ccccc3F)nc3n[nH]c(C)c3c2=N)ccc1Cl	-8	-8.3	-2	4030	4	0	14
CCOC(=O)Cc1nnc(Nc2ccc(C)cc2)c2ccccc12	-11	14	5	2860	-12	18	-35
COc1ccc(/C=C2\SC(=S)N(C(C)C(=O)NC3C=CS(=O)(=O)C3)C2=O)cc1 (stereo unspecified)	-4	8.2	1	5653	-2	2	-6
O=C(Cc1ccc(F)cc1)N1CCN=C1SCc1ccc([N+](=O)[O-])cc1	-10	-3.0	-1	2411	-12	9	9
CC(C)c1ccc(/C=C2\NC(=S)N(Cc3cccnc3)C2=O)cc1	-33	2.5	-18	4123	10	3	3
Nc1nonc1-n1nnc(C(=O)N/N=C/c2cc(Br)ccc2O)c1CSC1=NCCS1	-7	/	/	10648	33	/	/

Part of the list above, as a markdown table:
| Compound | PrP UTR inh | RN4220 kill | Sa ugtP lethal | Autofluor counter | BJeLR viability | Mtb hypoxia inh | Mtb hypoxia inh growth |
| --- | --- | --- | --- | --- | --- | --- | --- |
| S=C(NCc1ccccc1)NCc1ccccn1 | -14 | 3.4 | 7 | 6039 | -7 | -8 | -8 |
| CCOC(=O)Cc1nnc(Nc2ccc(C)cc2)c2ccccc12 | -11 | 14 | 5 | 2860 | -12 | 18 | -35 |
| CC(C)c1ccc(/C=C2\NC(=S)N(Cc3cccnc3)C2=O)cc1 | -33 | 2.5 | -18 | 4123 | 10 | 3 | 3 |
| COc1ccc(S(=O)Cc2ccc(C(=O)NCc3cccc(OC)c3)o2)cc1 (stereo unspecified) | -18 | 1.8 | 6 | 5338 | 2 | 5 | 7 |
| Nc1nonc1-n1nnc(C(=O)N/N=C/c2cc(Br)ccc2O)c1CSC1=NCCS1 | -7 | / | / | 10648 | 33 | / | / |
| Cc1nc2[nH]c(=S)n(C)c(=O)c2nc1C | -10 | 0.4 | 6 | 2570 | -18 | -1 | 5 |

Continuation.
SMILES	PrP UTR inh	RN4220 kill	Sa ugtP lethal	Autofluor counter	BJeLR viability	Mtb hypoxia inh	Mtb hypoxia inh growth
CN1CN(C)C(c2ccncc2)=C1c1ccncc1	-24	-0.3	10	3032	-5	6	-11
O=C(COC(=O)CCC1CCCC1)Nc1cc(S(=O)(=O)N2CCOCC2)ccc1Cl	-19	3.1	4	5286	/	12	-2
COc1ccc(N2CCN(C(=O)CCS(=O)(=O)c3ccc4c(c3)NC(=O)C(C)S4)CC2)cc1 (stereo unspecified)	-8	-0.9	3	6370	3	-8	0
COc1cccc(/C=N/NC(=O)CNC(=O)COc2cccc(C)c2)c1O	-8	/	/	3942	-6	/	/
Cn1c(SCC(=O)Nc2ccc(NC(=O)c3ccccc3)cc2)nnc1-c1ccncc1	-24	6.0	2	6405	-1	-12	-2
COC(=O)c1nc(NC(=O)c2ccccc2Cl)n[nH]1	-20	1.4	-5	22352*	-1	0	7
O=C(O)c1cccc(NS(=O)(=O)c2ccc(-c3ccc(S(=O)(=O)Nc4cccc(C(=O)O)c4)cc3)cc2)c1	-18	4.6	6	3961	-2	11	-5
COc1cc(OC)c2c(c1C(CCN1CCOCC1)c1ccc(N(C)C)cc1)OC(=O)CC2c1ccc(N(C)C)cc1 (stereo unspecified)	4	4.9	0	3008	-2	-1	11
Cc1ccc(OC(=S)Nc2ccc(F)cc2)cc1	-24	-4.9	-6	6902	5	-7	-6
COCCCn1c(CCC(=O)O)ccc1-c1ccc(F)cc1	-6	0.4	-4	4371	8	/	/
CCOc1ccccc1N=Nc1c(C)[nH]n(-c2ccccc2)c1=O	-26	-1.2	4	3276	-10	6	-3
Cc1cc(C(=O)CCC(=O)N(C)CC(=O)Nc2ccc(OC(F)(F)F)cc2)c(C)s1	-27	-5.1	-8	?	/	4	-1
Cc1c(NC(=S)N/N=C/c2ccc(Br)cc2)c(=O)n(-c2ccccc2)n1C	-12	/	/	?	6	/	/
COc1cc(OC)cc(C(=O)NC2=NCCS2)c1	-23	-1.2	-4	3636	7	-3	-7
Cc1cc(C=C2C(=O)N(C)C(=S)N(C)C2=O)c(C)n1C1CCCC1	-15	0.7	4	4034	-3	6	-1
CC(=O)N1CCN(c2ccccc2NC(=O)c2cc(Br)ccc2Cl)CC1	0	0.9	-1	5101	-3	/	/
CCOC(=O)Cc1csc(SCC(=O)Nc2cc(Cl)ccc2Oc2ccccc2)n1	-12	4.5	-6	2255	-5	/	/
CCN1CCN(c2ccc(S(=O)(=O)N3CCCCC3)cc2NC(=O)COc2cc(C)ccc2Cl)CC1	1	9.0	2	?	-10	0	0
C=CCn1cc(C(=O)N2CCN(CC)CC2)c(=O)c2cc(S(=O)(=O)N(CC)CC)ccc21	6	1.6	0	3840	4	-7	9
CC1(C)CC(C(CC(=O)N2CCCC2)Cc2ccccc2)CCO1 (stereo unspecified)	-9	2.3	3	3398	4	-2	-1
COc1ccc(C2CC(c3cccs3)=NN2C(=O)c2ccccc2)cc1OC (stereo unspecified)	-4	2.6	3	3784	2	11	2
Cc1ccc(CN2CCN(Cc3cc(=O)c4ccccc4[nH]3)CC2CCO)o1 (stereo unspecified)	-16	3.3	3	3379	5	7	12
CC(=O)Nc1ccc(NC(=O)C(C)OC(=O)c2ccc(S(=O)(=O)N3CCCCC3)cc2)cc1 (stereo unspecified)	-8	2.3	1	4093	/	17	10
CCCC(C(=O)NC1=NCCS1)c1ccccc1 (stereo unspecified)	-8	-2.5	10	2419	-10	5	-4
Cc1cccc(NC(=O)c2cccc(S(=O)(=O)N3CCc4ccccc4C3)c2)n1	-2	14	0	?	-2	1	3
Cc1cc(C(=O)CN2C(=O)c3ccccc3C2=O)c(C)n1C1CC1	-41	3.3	4	9648	0	9	6
CC(Oc1ccc2c(-c3ccccc3)cc(=O)oc2c1)C(=O)NC(Cc1c[nH]c2ccc(O)cc12)C(=O)O (stereo unspecified)	-39	0.3	-25	5540	-4	/	/
N/C(=N\OC(=O)/C=C/c1ccccc1)c1cccnc1	-30	1.2	0	2661	7	7	9
NC(=O)C(c1ccc(F)cc1)c1ccc(C(=O)c2ccccc2)cc1 (stereo unspecified)	6	-1.4	5	3433	16	6	0
Cc1nn(Cc2ccccc2Cl)c(Cl)c1C(=O)OC(C(=O)NC(N)=O)C(C)C (stereo unspecified)	5	7.1	-4	1898	2	5	7
CC(C)(C)c1nc(N)nc(=O)[nH]1	-18	3.1	6	4498	1	-6	5
CC(C)CNC(=O)CCc1nc(-c2ccccc2)no1	-12	2.8	3	5819	-4	15	0
CCc1cc2cccc(C)c2nc1SCC(=O)NC1CCCC1	-20	6.2	4	3309	4	7	12
CCOc1ccc(/C=N/NC(=O)NC23CC4CC(CC(C4)C2)C3)cc1O	-2	/	/	5569	3	/	/
CCOC(=O)c1ncn2c1C(=O)OC2(C)C	-31	2.2	2	19113*	-4	7	4
Cc1nc2c(-c3ccc(F)cc3)c(C)nn2c(C)c1CCC(=O)N1CCOCC1	-29	1.0	0	6014	10	0	5
CSc1ccccc1NC(=O)CSCc1ccc(Br)cc1	6	6.9	13	16464*	-17	3	2
CC(=O)Nc1ccc(SCC(=O)OCC(=O)NC(=O)NCCC(C)C)cc1	-5	5.2	0	3238	10	2	0
C[C@H](CO)N1C[C@H](C)[C@@H](CN(C)S(=O)(=O)c2cccs2)Oc2ccc(NC(=O)Nc3ccccc3)cc2C1=O	-5	0.8	-4	3912	/	-9	12
CN(C)c1nc(-c2ccccc2)cc(C(F)(F)F)c1C#N	5	3.6	10	3367	0	3	9
COCCCNC(c1ccccc1)c1ccncc1 (stereo unspecified)	5	1.0	5	4339	0	/	/
COc1ccc(CCNCc2c(-c3ccccc3)n(C)c3ccccc23)cc1	-25	-0.8	-15	4135	3	5	-1
